Compound activity as filed in PubChem.
GALR2 agonist – GALR2 receptor agonists, primary screen, cell-based. activation, %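 (tested at 5 µM)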. GALR2-expressing cells, agonist activation read-out. 140,000 compounds, 0.48% hits. AID 803, 2007;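 active = above mean plus 3 SD of all compounds, about 5% in these data, not always enough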;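 note: 0% = vehicle buffer wells and 100% = reference agonist at full effect; tested in CHO reporter cells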
INS promoter inh – inhibitors of insulin promoter-driven GFP, primary screen, imaging, TRM-6 cells (human fetal islet line), eGFP reporter, cell count; 130,000 compounds, 0.9% hits; inhibition, % at 2 µM; AID 1273, 2008; reporter expression induced with tamoxifen;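 active = inhibition above the mean plus 3 SD, with well images judged a real hit on visual review, cut at about 60% in these data, passing the limit was not always enough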
PKD1 inh – inhibitors of human PKD1 kinase, biochemical, fluorescence polarization; 200,000 compounds, 0.056% hits; AID 797, 2007; inhibition, %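 (about 10 µM by stock and volumes)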; PKD1 kinase fluorescence polarization assay;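 active = inhibition of 50% or more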;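 note: controls were vehicle for no effect and a reference inhibitor for full effect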
Target sequence (Q15139 whole entry, looked up): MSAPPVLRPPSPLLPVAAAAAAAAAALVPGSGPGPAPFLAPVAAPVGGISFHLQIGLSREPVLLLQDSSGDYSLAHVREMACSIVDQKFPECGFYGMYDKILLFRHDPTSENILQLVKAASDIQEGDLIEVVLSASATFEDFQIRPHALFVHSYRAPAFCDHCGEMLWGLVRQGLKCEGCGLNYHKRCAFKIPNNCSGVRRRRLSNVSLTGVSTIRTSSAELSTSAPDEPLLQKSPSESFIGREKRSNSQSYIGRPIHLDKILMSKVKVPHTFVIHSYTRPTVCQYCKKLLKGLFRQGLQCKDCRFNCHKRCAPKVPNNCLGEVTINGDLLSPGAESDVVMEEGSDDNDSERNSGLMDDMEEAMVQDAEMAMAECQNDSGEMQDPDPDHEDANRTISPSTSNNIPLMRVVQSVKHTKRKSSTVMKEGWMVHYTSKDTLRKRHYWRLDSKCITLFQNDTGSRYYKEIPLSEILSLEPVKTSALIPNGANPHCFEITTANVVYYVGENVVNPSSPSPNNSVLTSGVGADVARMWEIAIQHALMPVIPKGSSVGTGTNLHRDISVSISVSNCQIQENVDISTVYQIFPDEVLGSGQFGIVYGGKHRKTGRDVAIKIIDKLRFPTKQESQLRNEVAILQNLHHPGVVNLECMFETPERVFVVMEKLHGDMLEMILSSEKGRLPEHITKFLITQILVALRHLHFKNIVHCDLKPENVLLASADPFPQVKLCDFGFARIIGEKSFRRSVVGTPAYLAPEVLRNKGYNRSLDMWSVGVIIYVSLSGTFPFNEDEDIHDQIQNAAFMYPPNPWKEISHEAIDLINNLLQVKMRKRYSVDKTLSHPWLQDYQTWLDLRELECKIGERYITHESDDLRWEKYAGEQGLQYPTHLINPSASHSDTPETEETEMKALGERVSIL
RGS16-Gao HTS – modulators of RGS16 binding to Galphao, primary screen, biochemical, human proteins, multiplexed bead flow cytometry; Regulator of G-protein signaling 16 (Homo sapiens) + Guanine nucleotide-binding protein …; bead-based flow cytometry RGS16-Galphao binding, fluorescence; actives lie on both sides; binding response (% of control), % at 10 µM; 220,000 compounds, 0.38% hits; AID 1441, 2008;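 active = below 25% or above 175%, edge rows of some plates excepted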;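 note: Galphao activated by GDP with aluminum fluoride before binding; 100% = wells without compound and 0% = beads without RGS; some results beyond the cut were filed as inactive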
HSV augment – enhancers of HSV replication in host cells, fold increase, host cell viability. HSV replication augmentation in cells. maximum fold increase. 220,000 compounds, 0.005% hits. AID 1956, 2009;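 active = peak rise of 1.5-fold or more in the series; tested in PC3 cells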;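 note: first round at 10 µM; read as green reporter fluorescence; hits show the peak of a series up to 25 µM; 1 = signal of infected wells without compound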
INS promoter inh cell count – also measured in INS promoter inh; calls as there; normalized cell count, %; measured here: cell count, toxicity; reference of the scale not given here;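 cells exposed to compound for 48 h; stained nuclei by imaging scaled within each plate; lower means fewer cells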
HSV augment primary fold – also measured in HSV augment; calls as there; fold increase; compound at 10 µM; measured here: primary screen fold increase 10 uM; tested in PC3 cells;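 GFP signal in the first replicate; 1 = infected wells without compound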
The depositor's hits bear a star; i = inactive; nt = no result given.

Values in the order – INS promoter inh, INS promoter inh cell count, RGS16-Gao HTS, GALR2 agonist, HSV augment primary fold, HSV augment, PKD1 inh
1) CCCC(C)NC(=O)c1c2c(nc3ccccc13)CCC2 (stereo unspecified)
 : nt, nt, 91.9, nt, 1.14, i, -1.4
2) CN(Cc1ccccc1)C(=O)CSc1nc2cc(C(=O)N3CCC(C(N)=O)CC3)ccc2c(=O)n1-c1ccccc1
 : nt, nt, 101.0, nt, 0.93, i, nt
3) CN(c1ccccc1)S(=O)(=O)c1ccc(Cl)c(C(=O)OCC(=O)N2CCOCC2)c1
 : nt, nt, 96.8, nt, 1.01, i, -0.1
4) CC1(C)CC(=O)C(C(c2ccncc2)C2C(=O)CC(C)(C)CC2=O)C(=O)C1
 : 69.2, 141.2, nt, -2.0, 0.9, i, -10.2
5) COc1ccc(OC)c2c1sc(=NC(=O)C(C)C)n2C
 : nt, nt, 101.9, -2.6, 0.8, i, 0.0
6) Cc1noc(C)c1Cc1ccc(O)cc1
 : 25.0, 70.7, 102.2, -0.6, 0.98, i, -1.6
7) Cc1ccccc1-c1noc(C23CC4CC(CC(C4)C2)C3)n1
 : -76.9, 111.3, 97.5, -0.3, 0.82, i, -7.7
8) NC(=O)Cc1ccc2c(c1)[nH]c1ccccc12
 : nt, nt, 103.2, nt, 1.05, i, nt
9) CS/C(=N\N(C)C(N)=O)c1ccccc1
 : 10.3, 111.3, 103.1, -0.9, 1.07, i, -16.2
10) COc1ccc(CCNC(=O)C2CCN(S(=O)(=O)c3ccc(Cl)cc3)CC2)cc1OC
 : -12.5, 108.0, 103.7, -1.9, 1.17, i, 5.0
11) CCOC(=O)N1CCN(C(=O)C2CC(c3ccc(F)cc3)=NO2)CC1 (stereo unspecified)
 : nt, nt, 99.0, -4.0, 1.09, i, -1.4
12) Cc1ccc(-c2cc(C(=O)O)c3sc(N4CCCCC4)nc3n2)cc1
 : 6.5, 104.0, 97.2, -0.9, 1.05, i, 6.5
13) COc1ccc(CC(=O)Nc2cccc(-c3ccc4nnc(C)n4n3)c2)cc1
 : 0.0, 138.9, 101.5, nt, 0.89, i, 9.5
14) Cc1ccc(S(=O)(=O)Cn2nnnc2C(c2ccccc2)N2CCN(c3ccccc3)CC2)cc1 (stereo unspecified)
 : -12.5, 140.2, 100.0, 29.2*, 1.01, i, -3.4
15) Cc1nn(-c2nc(-c3ccco3)cc(C(F)(F)F)n2)c(C)c1Cl
 : -3.1, 3.7, 103.5, -1.3, 0.85, i, 6.1
16) O=C(O)CC(NC(=O)C1c2ccccc2Oc2ccccc21)c1ccc(Cl)cc1 (stereo unspecified)
 : nt, nt, 137.2, -1.4, 0.97, i, -10.3
17) CCOCC(=O)OCC(=O)Nc1cc(OC)c([N+](=O)[O-])cc1C
 : -63.6, 81.1, 104.1, nt, 0.93, i, -2.3
18) CCOC(=O)N1CCN(C(=O)CN(Cc2ccc(Cl)cc2)S(C)(=O)=O)CC1
 : 49.3, 45.6, 112.7, -1.6, 0.85, i, 5.6
19) COCCNc1nc2ccccc2nc1NS(=O)(=O)c1ccc(C)cc1C
 : 15.6, 100.0, 97.7, -1.8, 0.82, i, -4.1
20) COc1ccccc1NC(=O)C(C)Nc1ccc(C)c(Cl)c1 (stereo unspecified)
 : -28.6, 105.9, 97.0, nt, 0.98, i, 0.4
21) CCn1c(SCC(=O)Nc2ccccc2C(=O)OC)nnc1-c1cccc(C)c1
 : 16.1, 128.1, 103.3, -0.2, 0.73, i, -3.9
22) CCS(=O)(=O)n1nc(-c2ccc(Cl)cc2)nc1SCc1ccccc1
 : -43.8, 51.4, 82.0, 0.1, 0.96, i, 3.1
23) CS(=O)(=O)Nc1ccc(C(=O)Nc2ccccc2Cl)cc1
 : nt, nt, 101.0, nt, 0.93, i, -12.5
24) CCCOc1ccc(Cc2nn3c(=O)/c(=C/c4ccco4)sc3nc2=O)cc1
 : -81.8, 51.3, 96.2, -0.6, 0.89, i, 41.0
25) NC(=S)C1COc2ccccc2O1 (stereo unspecified)
 : nt, nt, 93.1, nt, 0.92, i, nt
26) CC(C)(CO)Nc1ccc([N+](=O)[O-])cc1[N+](=O)[O-]
 : 16.7, 115.6, 103.0, -1.5, 0.95, i, -5.9
27) CCOC(=O)N1CCC(NC(=O)CCC(=O)N2CC(C)Oc3ccc(C)cc32)CC1 (stereo unspecified)
 : -18.2, 128.4, 107.2, -2.1, 0.98, i, 0.9
28) CCN1CCN(CCCNC(=O)CCc2nc(-c3ccc(OC)cc3)no2)CC1
 : -20.0, 103.0, 103.1, nt, 1.05, i, -1.6
29) CC(C)Oc1ccc(C(=O)NC(=S)Nc2ccc(Cl)c(C(=O)O)c2)cc1
 : nt, nt, 100.8, nt, 0.89, i, nt
30) Cc1ccc(S(=O)(=O)N(C)C)cc1NC(=O)c1n[nH]c(=O)c2ccccc12
 : nt, nt, 109.8, nt, 0.73, i, nt

Structures above printed as active in GALR2 agonist:
| nr | mol | RGS16-Gao HTS | GALR2 agonist | HSV augment primary fold | PKD1 inh |
| --- | --- | --- | --- | --- | --- |
| 14 | Cc1ccc(S(=O)(=O)Cn2nnnc2C(c2ccccc2)N2CCN(c3ccccc3)CC2)cc1 (stereo unspecified) | 100.0 | 29.2* | 1.01 | -3.4 |

Screen by screen, quoted from above.
HSV augment, nos. 19–24: i, i, i, i, i, i
GALR2 agonist, nos. 19–24: -1.8, nt, -0.2, 0.1, nt, -0.6

Back to the main list, repeating the two entries before the break.
Values in the order – INS promoter inh, INS promoter inh cell count, RGS16-Gao HTS, GALR2 agonist, HSV augment primary fold, HSV augment, PKD1 inh
29) CC(C)Oc1ccc(C(=O)NC(=S)Nc2ccc(Cl)c(C(=O)O)c2)cc1
 : nt, nt, 100.8, nt, 0.89, i, nt
30) Cc1ccc(S(=O)(=O)N(C)C)cc1NC(=O)c1n[nH]c(=O)c2ccccc12
 : nt, nt, 109.8, nt, 0.73, i, nt
31) Cc1nc2c(-c3ccc(Cl)cc3)cnn2c2c1CCC2
 : 37.5, 73.9, 101.9, nt, 0.93, i, -3.3
32) Cc1ccc(Nc2nnc(SCC(=O)c3ccc(Br)s3)s2)c(C)c1
 : 29.0, 146.9, 101.6, 0.2, 0.97, i, 8.6
33) CCN(CC)C(=O)c1cncc(C(=O)N(CC)CC)c1-c1ccccc1
 : nt, nt, 104.2, -1.9, 1.04, i, -9.7
34) O=C(COC(=O)CCc1c[nH]c2ccccc12)NC1CCS(=O)(=O)C1 (stereo unspecified)
 : 13.5, 150.0, 104.7, -0.3, 0.87, i, -1.8
35) COc1ccc(S(=O)(=O)NCCN2CCNC2=O)cc1OC
 : nt, nt, 101.0, nt, 1.02, i, nt
36) CC(C)(C)C(=O)Nc1cc(C(F)(F)F)ccc1N1CCOCC1
 : 44.2, 92.5, 114.6, -1.4, 0.833, i, 0.1
37) Cc1ccc(Cl)cc1NC(=O)Cn1cccc1
 : 57.1, 156.6, 107.0, -3.5, 1.01, i, 2.2
38) CCOC(=O)c1c(-c2ccccc2Cl)csc1NC(=O)c1cc(S(=O)(=O)N2CCOCC2)ccc1C
 : -36.0, 72.8, 47.5, -1.2, 1.09, i, -11.3
39) O=c1[nH]cnc2scc(-c3ccc(-c4ccccc4)cc3)c12
 : -38.7, 31.9, 92.9, -1.0, 0.88, i, -1.1
40) CCn1c(SCc2ccc([N+](=O)[O-])cc2)nnc1C(C)NC(=O)c1ccc(C)cc1 (stereo unspecified)
 : nt, nt, 102.6, -0.8, 1.03, i, 3.6
41) COc1ccc(-c2nc(-c3ccc(Br)o3)no2)cc1
 : nt, nt, 113.4, -2.7, 0.9, i, -1.1
42) CCOc1ccc(CC(=O)N2CCN=C2SCc2ccc([N+](=O)[O-])cc2)cc1
 : nt, nt, 99.4, nt, 0.75, i, 0.5
43) CC(=O)c1ccc(NC(=O)/C(=C\c2cccs2)NC(=O)c2ccco2)cc1
 : nt, nt, 103.6, nt, 0.98, i, 4.8
44) COc1ccc(S(=O)(=O)n2nc(C)cc2C)c(C)c1C
 : 7.1, 49.6, 103.0, -2.0, 1.05, i, -8.2
45) O=C(NCc1ccc2c(c1)OCO2)c1cccc(Cl)c1
 : -7.7, 151.2, 101.2, -0.3, 0.91, i, -1.0
46) c1ccc2c(c1)c1ccccc1n1c(-c3ccc4c(c3)OCO4)nnc21
 : -93.3, 78.7, 102.6, -2.0, 0.83, i, -5.6
47) O/N=C1/C2C3CC4C5C3C1C5C1(OCCO1)C42 (stereo unspecified)
 : 28.6, 72.2, 114.5, -0.8, 0.71, i, -5.8
48) O=C1CSc2ccc(C(=O)NCCC3=CCCCC3)cc2N1
 : 25.7, 131.9, 100.2, -3.2, 0.85, i, 1.0
49) COc1ccc(OC)c(NC(=O)C2CCCN2C(=O)OCc2ccccc2)c1 (stereo unspecified)
 : nt, nt, 101.2, -2.0, 0.89, i, 1.4
50) Cc1cc(NCc2ccc(F)cc2Cl)n2nnnc2n1
 : -53.9, 75.7, 103.0, -0.5, 0.82, i, -4.9
51) Cn1c(=O)c2ncn(CC(=O)N/N=C/c3ccco3)c2n(C)c1=O
 : -10.0, 119.7, 98.8, -0.8, 0.98, i, -1.0
52) O=C(CN1CCCCCC1)Nc1cccc([N+](=O)[O-])c1
 : nt, nt, 92.3, nt, 1.03, i, -0.7
53) CCCn1c(=O)c2ccccc2n2c(SCCOc3ccccc3)nnc12
 : 44.4, 102.5, 105.9, 0.5, 0.76, i, -2.3
54) Cc1ccc(Cl)cc1NC(C#N)c1ccccc1 (stereo unspecified)
 : nt, nt, 94.6, nt, 0.96, i, nt
55) O=C(O)C1CCCCC1C(=O)NC(c1ccccc1)c1ccccc1 (stereo unspecified)
 : nt, nt, 101.2, nt, 0.96, i, nt
56) Oc1ccccc1N=Cc1c(O)ccc2ccccc12
 : nt, nt, 102.2, nt, 0.95, i, nt
57) Cc1cccc2cc3c(nc12)SC(=NCC1CCCO1)N(Cc1ccco1)C3 (stereo unspecified)
 : nt, nt, 64.3, -1.1, 1.03, i, -1.7
58) COc1ccc(NC(=O)c2cccc(F)c2)cc1Cl
 : 17.4, 110.4, 101.4, -1.4, nt, nt, -5.0
59) O=C(NCc1ccco1)Nc1ccc(Br)cc1
 : -9.7, 97.4, 107.3, -2.9, 0.9, i, -9.4
60) CC(=O)N1CCCc2cc(S(=O)(=O)Nc3ccc4c(c3)OCO4)ccc21
 : nt, nt, 98.3, nt, 0.973, i, nt
61) CC(C)c1nnc(NC(=O)CCS(=O)(=O)c2nc(-c3cccs3)cc(C(F)(F)F)n2)s1
 : nt, nt, 93.5, -2.4, 0.9, i, -10.3
62) O=C(NC1CCCC1)C1CCCN1C(=O)Nc1ccccc1Cl (stereo unspecified)
 : -18.8, 84.5, 103.9, -0.2, nt, nt, 1.9
63) O=C(/C=C/c1cccc(Br)c1)Nc1nn[nH]n1
 : nt, nt, 100.0, nt, 0.95, i, nt
64) Cc1ccc(NC(=S)N2CCN(CCN3C(=O)c4cccc5cccc(c45)C3=O)CC2)cc1
 : -2.9, 148.4, 97.7, -1.9, 0.82, i, 0.3
65) O=C(O)C1CC(c2ccc(F)cc2)=NO1 (stereo unspecified)
 : -45.5, 117.5, 110.5, -0.7, 0.95, i, -7.6
66) CCOC(=O)C1(Cc2ccccc2)CCCN(Cc2ccc(OCCO)cc2)C1 (stereo unspecified)
 : -38.9, 99.8, 103.9, nt, 1.12, i, 1.3
67) CN(C)/C=C/C(=O)c1cnc2n(c1=O)CCS2
 : 42.9, 125.6, 107.3, nt, 0.91, i, -1.5
68) CC(=O)c1cccc(NC(=O)NC(C)C2CCCO2)c1 (stereo unspecified)
 : 22.2, 64.2, 91.7, -1.2, 1.04, i, -6.5
69) CCOc1ccc(N2C(=O)CN(C)C2=S)cc1
 : 12.8, 106.0, 103.6, -0.7, 0.88, i, -0.2
70) Cc1ccc2c(c1)C(=O)OC1(O)C3C4C=CC(C4)C3C(=O)N21 (stereo unspecified)
 : nt, nt, 100.7, nt, 0.9, i, nt
71) O=C(Nc1ccc2c(c1)OCO2)c1ccc(NC2CC2)c([N+](=O)[O-])c1
 : -3.2, 127.4, 98.0, -1.3, 0.86, i, -2.7
72) CC(=O)Cc1nsc(Nc2ccc(Cl)cc2)n1
 : nt, nt, 112.2, nt, 0.88, i, 0.5
73) C=CCNC(=S)NNC(=O)COc1ccc2cc(Br)ccc2c1
 : nt, nt, 97.3, nt, 0.93, i, 5.3
